Screening data: PubChem BioAssay, several laboratories
BJeLR lethal: MLPCN primary cell-based screen for lethality selective to Ras in HRASV12 cells; inhibition, % (test concentration not listed); AID 1554, 2009; BJeLR (HRASV12) viability, CellTiter-Glo ATP luminescence, 48 h; reference of the scale not given here; hit rate 0.17% among 300,000;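 active means replicate mean above 50%; inconclusive means above 50% but judged a plate artefact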;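 further: 50 nL library stock added to about 25 µL; numbers are from one replicate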
Mtb hypoxia inh: PubChem AID 1159583; fluorescence inhibition, % (no concentration beside the values); M. tuberculosis hypoxia-regulated fluorescent reporter, fluorescence; hit rate 0.1% among 300,000;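 active means 35 to 45% if threefold the growth effect, above 45% if 1.5-fold the growth effect; inactive means the rest, general growth blockers included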;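 further: wells of about 50 µL received 100 nL stock; 0% = vehicle wells and 100% = reference inhibitor wells; whole bacteria with a GFP reporter of the hypoxia response; strong numbers were not always called active; many hits fall short of the cut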
Sa ugtP lethal: growth inhibition of ugtP-null S. aureus, primary screen, RN4220 ugtP deletion, OD600; hit rate 0.54% among 330,000; growth inhibition, % (concentration not given with the values); AID 1259309, 2017; 16 h; some inactives read as strong as hits;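 active means z-score under -3 and OD600 up to 0.15 on both plates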;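 further: plate controls were untreated wells for no effect and antibiotic for full effect; wells of about 80 µL received 100 nL stock; the first replicate is given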
Bead autofluor: flagged as autofluorescent in microsphere protease counterscreen. hit rate 3.1% among 360,000. fluorescence intensity (no concentration beside the values). AID 624483. compound autofluorescence counterscreen, microsphere flow cytometry; stronger effect = higher value;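 active means at least 3 SD above the mean of all compounds, about 16000 in these data; inconclusive means too few beads counted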;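 further: 100 nL of 1 mM stock went into each well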
PrP 5UTR inh: inhibition of PrP 5' UTR reporter expression; cell-based PrP 5' UTR mRNA reporter, plate reader; inhibition, % (test concentration not listed); hit rate 0.35% among 340,000; AID 488862, 2010;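 active means every replicate at 50% or more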;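 further: 0 = median of the neutral control wells; tested in H4 reporter cells; numbers are from one replicate; inactives centre near -14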
Sa RN4220 lethal: growth inhibition of S. aureus RN4220, primary screen, OD600 | 16 h | inhibition, % (test concentration not listed) | hit rate 0.33% among 330,000;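 active means z-score of -3 or lower and OD600 up to 0.18 on both plates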;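 further: plate controls were untreated cells for no effect and reference antibiotic for full effect; stock transfer was 100 nL into about 80 µL; one replicate is shown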
Mtb hypoxia inh growth: further read-out of Mtb hypoxia inh, marked with its call; growth inhibition, %; measured here: M. tuberculosis growth (absorbance);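 0% = vehicle and 100% = reference antibiotic; read after six days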
* = called active by the depositor; u = inconclusive; x = no result given.

SMILES	BJeLR lethal	Mtb hypoxia inh	Mtb hypoxia inh growth	Sa ugtP lethal	Bead autofluor	PrP 5UTR inh	Sa RN4220 lethal
CCN(C(=O)COC(=O)c1[nH]c(C)c(C(C)=O)c1C)C1CCS(=O)(=O)C1 (centres undefined)	9	x	x	4	3149	3	4.0
CC(=O)[C@@]1(O)CC[C@H]2[C@@H]3CCC4=CC(=O)CC[C@]4(C)[C@H]3CC[C@@]21C	2	x	x	x	4266	13	x
COC(=O)c1ccc(NC(=O)CCn2c(=O)oc3ccccc32)cc1	0	10	7	-3	3785	-23	3.2
CCn1c(SCC(=O)Nc2ccc(C)cc2)nnc1-c1ccc(O)cc1	-2	2	-2	7	17034*	-10	4.6
O=C(NNC(=O)c1ccccc1[N+](=O)[O-])Nc1ccccc1C(F)(F)F	1	14	9	0	3411	-13	5.8
O=C(c1ccoc1)N1CCCC(N2CCN(c3cccc(Cl)c3)CC2)C1 (centres undefined)	3	0	8	2	5664	-2	1.6
Cc1cccc(C)c1NC(=O)c1cc(S(=O)(=O)N2CCOCC2)ccc1F	9	1	-1	-4	9654	1	-1.1
CN(C)/C=C/C(=O)c1ccc(Br)s1	0	13	13	2	4266	-5	1.4
O=C1NC(=Nc2ccccc2Cl)S/C1=C\c1ccc(C(=O)O)cc1	-1	17	4	15	3816	-25	25
CCOC(=O)C=c1sc(=Cc2ccc(C(=O)OC)cc2)c(=O)n1CC(=O)Nc1ccccc1	x	13	4	4	x	x	7.0
Cc1ccccc1S(=O)(=O)NC1OC(=O)C(Oc2ccccc2)=C1Br (centres undefined)	-15	12	14	9	4226	-30	0.9
O=C(O)c1ccc(C=NN2CCN(Cc3cccc4ccccc34)CC2)cc1	x	15	9	2	x	x	5.9
CC1(C(=O)N2CC3(CC(c4cccc(NC(=O)COc5ccc(Cl)cc5)c4)=NO3)CC2C(N)=O)CC1 (centres undefined)	x	19	7	2	x	x	8.7
CN1CC2C(c3ccc(C(F)(F)F)cc3)C3(c4ccccc4)CC2(C3)C1c1ccccc1 (centres undefined)	x	1	9	2	x	x	-9.7
O=C(NC1CCCCC1)C(c1ccccc1)N(Cc1ccco1)C(=O)c1csnn1 (centres undefined)	4	0	6	8	3777	-21	0.5
Cc1ccccc1OCCNC(=O)c1ccccc1Sc1ccccc1C#N	4	x	x	-1	2043	-7	7.8
COc1cccc(NC(=O)N2CCCC(C(=O)Nc3ccccc3OC)C2)c1 (centres undefined)	0	19	3	2	u	-12	2.1
CC(C)c1nc2sc(C(=O)O)c(N)c2c2c1CCCC2	0	4	12	-5	4408	-19	4.7
O=C(OCC1COc2ccccc2O1)c1ccccc1F (centres undefined)	0	19	7	0	10523	-32	7.8
CCc1cc2c3c(c1)C1(C(=O)N3C(C)(C)CC2C)C(C#N)=C(N)N2C(=C1C#N)Nc1ccccc12 (centres undefined)	-10	5	15	-3	2085	-14	15
O=c1ccc(-c2ccccc2)n[nH]1	4	9	13	0	12407	-12	3.9
COCCn1nnnc1CN(CCCN1CCOCC1)Cc1cc2c(C)ccc(C)c2[nH]c1=O	6	-1	2	-1	3408	-5	-14
COc1ccccc1NS(=O)(=O)c1ccc(C)c(C(N)=O)c1	-9	-10	-2	-5	4348	-21	0.2
COC(=O)Cc1ccc(NC(=S)Nc2ccc(N3CCOCC3)cc2)cc1	6	x	x	2	4339	-7	-2.8
O=C(NC1CCCC1)c1ccc([N+](=O)[O-])s1	11	1	12	18	3314	-15	32
O=C1CCN(CCc2ccccc2)CCN1[C@H](CO)c1ccccc1	-3	x	x	x	4842	-22	x
CCOCC(=O)N1CCN(c2ccc([N+](=O)[O-])cc2)CC1	1	10	-2	19	7261	-7	5.3
Cn1nc(C(F)(F)F)c(C(=O)Nc2ccc(F)cc2F)c1Cl	1	13	-3	14	4365	-13	8.1
COc1ccc(S(=O)(=O)N(CC(=O)Nc2cccnc2)c2ccccc2OC)cc1	-6	6	4	-1	11427	-25	7.0
CC(=O)Nc1ccc(S(=O)(=O)N2CCN(C(=O)CCC3CCCC3)CC2)cc1	-6	-2	-6	12	3259	-6	2.2

Overlap with the part before: 5 compounds, followed by the next part.
SMILES	BJeLR lethal	Mtb hypoxia inh	Mtb hypoxia inh growth	Sa ugtP lethal	Bead autofluor	PrP 5UTR inh	Sa RN4220 lethal
O=C1CCN(CCc2ccccc2)CCN1[C@H](CO)c1ccccc1	-3	x	x	x	4842	-22	x
CCOCC(=O)N1CCN(c2ccc([N+](=O)[O-])cc2)CC1	1	10	-2	19	7261	-7	5.3
Cn1nc(C(F)(F)F)c(C(=O)Nc2ccc(F)cc2F)c1Cl	1	13	-3	14	4365	-13	8.1
COc1ccc(S(=O)(=O)N(CC(=O)Nc2cccnc2)c2ccccc2OC)cc1	-6	6	4	-1	11427	-25	7.0
CC(=O)Nc1ccc(S(=O)(=O)N2CCN(C(=O)CCC3CCCC3)CC2)cc1	-6	-2	-6	12	3259	-6	2.2
O=C1C2C3C=CC(CC3)C2C(=O)N1/N=C/c1ccc(O)cc1 (centres undefined)	-8	x	x	x	9002	-47	x
O=C(Nc1ccc(NC(=O)c2ccc([N+](=O)[O-])o2)cc1Cl)c1ccco1	-5	7	2	-1	5862	-1	1.6
CCCNS(=O)(=O)c1ccc(CCC(=O)NCC2CCCO2)cc1 (centres undefined)	4	8	7	0	10542	-5	1.9
CC1Cc2ccccc2N1C(=O)CCN1C(=O)C2C3C=CC(C3)C2C1=O (centres undefined)	-1	x	x	3	4539	-1	0.3
O=C(/C=C/c1ccccc1[N+](=O)[O-])NCc1ccc(Cl)cc1	-4	5	7	-1	2642	-7	-0.7
CCNC(=S)NN=C1c2ccccc2-c2ccccc21	-9	13	7	9	4005	-100	3.2
COc1cc(OC)cc(C(=O)NCC2CCCN(C(=O)c3csc(C)n3)C2)c1 (centres undefined)	11	5	5	20	4239	-7	7.0
CC1(C)CC(=O)C=C(C=Cc2ccccc2)C1	x	8	5	-14	x	x	1.1
COc1cc(NC(=O)C2CC(=O)NC3=C2C(=O)CC(C)(C)C3)c(OC)cc1Cl (centres undefined)	9	11	0	3	u	-15	6.6
Cc1ccc(C=NNC(=O)Cc2cccn2C)s1	x	12	5	7	x	x	-2.2

An excerpt of these results, with two lines to a compound.
Each structure is followed by: BJeLR lethal, Mtb hypoxia inh, Mtb hypoxia inh growth, Sa ugtP lethal, Bead autofluor, PrP 5UTR inh, Sa RN4220 lethal
CCc1cc2c3c(c1)C1(C(=O)N3C(C)(C)CC2C)C(C#N)=C(N)N2C(=C1C#N)Nc1ccccc12 (centres undefined)
  -10, 5, 15, -3, 2085, -14, 15
O=c1ccc(-c2ccccc2)n[nH]1
  4, 9, 13, 0, 12407, -12, 3.9
COCCn1nnnc1CN(CCCN1CCOCC1)Cc1cc2c(C)ccc(C)c2[nH]c1=O
  6, -1, 2, -1, 3408, -5, -14

Other entries follow.
SMILES	BJeLR lethal	Mtb hypoxia inh	Mtb hypoxia inh growth	Sa ugtP lethal	Bead autofluor	PrP 5UTR inh	Sa RN4220 lethal
Clc1ccc2c(c1)C(c1cccs1)=NNC(c1cccnc1)=N2	-7	4	7	-8	13327	-11	4.1
OC(Cn1cncn1)c1ccc(Cl)cc1Cl (centres undefined)	-7	x	x	10	2839	-24	7.8
CCOc1ccc(-c2nc(-c3cccnc3)no2)cc1OCC	-4	4	2	0	5497	-11	5.1
CC(C(=O)O)N1C(=O)CSc2ncccc21 (centres undefined)	14	x	x	x	2340	6	x
COc1ccc(/C=C2\OC(=O)c3c(OC)cccc32)cc1OC	-4	7	7	-13	3179	-70	-6.9
Cc1ccc(-c2noc(C3CCCN(S(=O)(=O)c4ccc(S(=O)(=O)N(C)C)cc4)C3)n2)o1 (centres undefined)	-6	2	-2	-4	9211	-24	4.7
O=C(CN1C(=O)CCC1=O)Nc1ccc(S(=O)(=O)N2CCOCC2)cc1	7	-7	14	-5	5853	9	-0.7
CN(CCOc1ccc(Cl)c(Cl)c1)Cc1ccccc1	-11	-1	12	18	3963	-21	4.7
O=C(Nc1nnc(SCC(=O)N2CCCCC2)s1)C1CCCCC1	3	11	1	8	3005	-4	0.9
CC(=NNC(=O)c1sccc1C)c1ccncc1	x	-7	2	12	x	x	5.7
Cc1nonc1C1CCCN1Cc1nc(-c2ccccc2Cl)oc1C (centres undefined)	-8	11	11	3	4244	-28	6.6
Cc1nc2ccccc2n1-c1ccccc1	5	x	x	0	4616	-12	-0.4
Cc1c(C(=O)NNc2cc(=O)n(C)c(=O)n2C)cccc1[N+](=O)[O-]	-9	-10	8	1	6068	-22	18
COc1ccc2nc(NC(=O)CSc3ccccc3)sc2c1	-5	x	x	12	2633	-31	-3.8
CCc1cc2c(SCc3ccc(C(=O)OC)o3)ncnc2s1	13	10	11	1	5498	-45	5.7
O=c1cc(NS(=O)(=O)c2ccccc2)nc(SCc2c(Cl)cccc2Cl)[nH]1	3	10	5	8	2625	-21	0.7
COCCn1c(SCC(=O)c2ccc(CNC(C)=O)o2)nc2ccccc2c1=O	-4	3	-1	4	4255	-12	3.5
Cc1ccnc2nc(NC(=O)c3ccco3)nn12	0	0	2	5	5731	-12	3.5
O=C(c1ccc(-c2cccc(Cl)c2Cl)o1)N1CCOCC1	4	8	8	4	4816	-109	6.5
CCOc1cccc(C2/C(=C(/O)c3ccc4c(c3)CC(C)O4)C(=O)C(=O)N2CCCn2ccnc2)c1 (centres undefined)	5	4	4	3	5090	-18	3.9
C[C@H](NC(=O)[C@@H]1Cc2ccccc2CN1)C(=O)NCC1CCCO1 (some centres undefined)	3	-10	-1	3	5801	-8	3.1
O=S1(=O)C=C(Oc2ccc3ccccc3c2)c2ccccc21	1	11	16	12	3799	-15	-2.6
CN(C)c1ccc(/C=N/NC(=O)C(O)c2ccc(Br)cc2)cc1 (centres undefined)	-1	x	x	x	3418	-24	x
O=C1C=C(c2ccccc2)OC(=O)C1C(=O)c1ccccc1 (centres undefined)	-4	1	2	-8	7953	5	2.8
COc1ccc(-c2nc(CS(=O)CC(=O)NC3CCCC3)c(C)o2)cc1OC (centres undefined)	3	-1	-4	9	4129	-1	2.6
COc1ccc2ccccc2c1/C=N/NC(=O)c1ccc(C)nc1	2	x	x	x	3760	-19	x
CC(=O)Nc1ccc(SCc2ncc(-c3ccccc3)o2)cc1	-6	4	-2	4	3699	-37	4.1
COc1cc2c(C(=O)NCc3ccc4c(c3)OCO4)cn(CC(C)C)c(=O)c2cc1OC	7	-2	-7	-6	2360	-73	1.7
